# MITF inhib – MITF inhibition; TRPM1 promoter luciferase, luminescence, 24 h; inhibition, % (no concentration beside the values); actives 0.28% (n = 37,000);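 active = most replicates at 85% or more, or half of them and the mean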;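 also: human melanocyte line stably carrying TRPM1 promoter luciferase reporter; 0% = vehicle wells and 100% = a positive control; the first replicate is given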
# Shh pathway inh – blocks Sonic Hedgehog signaling; Shh-LIGHT2 Gli-luciferase reporter, 30 h; inhibition, % (test concentration not listed); actives 2.1% (n = 22,000); AID 2313;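 active = replicate mean of 65% or more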;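 also: pathway switched on by Shh-conditioned medium diluted 1 in 25 in low serum; 100 nL library stock added to about 40 µL; 0% = median of neutral wells and 100% = positive control level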
# PD-1 reverse act – activators reversing PD-1 mediated T-cell inhibition | primary human CD4 T cells, PD-L1 beads, CellTiter-Glo 96 h | activation, % (no concentration beside the values) | 29,000 tested, under 10 active | AID 2316;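 active = replicate mean of 50% or more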;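 also: 0% = median vehicle wells and 100% = positive control; 100 nL library stock added to about 50 µL; numbers are from one replicate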
# YB-1 expression – YB-1 expression inhibition | U2OS, qRT-PCR YB-1 vs CDIP delta delta Cp, 16 h; active compounds read high; zero = DMSO, each unit about twofold | delta delta Cp (YB-1 minus CDIP) (no concentration beside the values) | actives 0.37% (n = 30,000);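 active = delta delta Cp rounded down to an integer at or above 3, about 3 SD of DMSO wells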;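 also: higher means less YB-1 transcript or more CDIP transcript relative to DMSO; stock transfer was 100 nL into about 100 µL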
# * = called active by the depositor; . = no result given. Not all compounds are listed; rates above refer to the full screens.
mol	MITF inhib	Shh pathway inh	PD-1 reverse act	YB-1 expression
COc1ccc(NC(=O)N(C)C[C@H]2Oc3ccc(NS(=O)(=O)c4ccc(Cl)cc4)cc3CC(=O)N([C@H](C)CO)C[C@H]2C)cc1	-13.4	23.7	2.6	-0.0387
C[C@@H]1CN([C@H](C)CO)C(=O)Cc2cc(NC(=O)CCC(F)(F)F)ccc2O[C@@H]1CN(C)S(=O)(=O)c1ccccc1	-10.4	-40.0	-0.1	0.447
Cc1cc(C)c(NC(=O)CN(c2cccc([N+](=O)[O-])c2)S(C)(=O)=O)c(C)c1	0.4	.	1.8	.
CCN(C(=O)c1cnccc1C(F)(F)F)c1nc2cc(Cl)ccc2s1	-74.2	.	-0.4	-0.0114
CCc1cc(OCCCSc2nc(C)cc(=O)[nH]2)ccc1Cl	69.9	.	-4.6	.
CC(C)C(=O)Nc1cccc(-c2nc3ccccc3c(=O)o2)c1	6.9	-17.5	-1.1	0.0111
Cc1noc(C)c1NC(=O)Nc1cccc2c1O[C@@H](CN(C)C(=O)Nc1ccc3c(c1)OCO3)[C@H](C)CN([C@H](C)CO)C2=O	-6.1	1.9	0.5	0.27
C[C@@H]1CN([C@@H](C)CO)C(=O)c2cc(NC(=O)Nc3ccc4c(c3)OCO4)ccc2O[C@H]1CN(C)Cc1ccc(C(F)(F)F)cc1	15.1	.	0.3	0.0721
O=C(CSc1nccc(=O)[nH]1)Nc1cccc(C(F)(F)F)c1	-2.0	.	-0.8	.
CCCC(=O)Nc1ncnc2c1ncn2[C@@H]1O[C@@H]2OP(=O)(O)OC[C@H]2[C@H]1OC(=O)CCC	-11.4	-41.9	4.5	-0.821
C=CCN1C(=O)/C(=C\c2ccc(OC(=O)c3ccco3)c(OC)c2)SC1=S	-37.6	.	-1.6	-0.394
CC(C)=CCCC(C)(O)C(O)Cc1cc(C(=O)O)cc(CC=C(C)C)c1O (centres undefined)	11.3	1.8	2.4	0.818
C[C@H]1CN([C@@H](C)CO)C(=O)Cc2cc(NC(=O)c3ccncc3)ccc2O[C@H]1CN(C)C(=O)Nc1ccccc1	0.7	-20.3	.	0.0458
C[C@H](CO)N1C[C@H](C)[C@H](CN(C)S(=O)(=O)c2ccccc2)Oc2c(NS(=O)(=O)c3ccc(F)cc3)cccc2C1=O	6.4	0.4	-1.1	0.304
COc1ccc(/C=C/C(=O)O[C@H]2[C@@H]3C=CO[C@@H](O[C@@H]4O[C@H](CO)[C@@H](O)[C@H](O)[C@H]4O)[C@@H]3[C@@]3(CO)O[C@@H]23)cc1O	.	-19.4	.	0.509
C[C@H](CO)N1C[C@H](C)[C@H](CN(C)S(=O)(=O)c2ccc(Cl)cc2)Oc2c(NC(=O)NC3CCCCC3)cccc2C1=O	62.9	122.4*	-10.8	0.229
CC(C)(C)c1ccc(S(=O)(=O)NCC(=O)Nc2ccc(F)cc2)cc1	1.0	.	-2.5	.
COc1ccc(NC(=O)Nc2ccc3c(c2)C(=O)N([C@@H](C)CO)C[C@@H](C)[C@H](CN(C)S(=O)(=O)c2ccc(F)cc2)O3)cc1	-27.8	-20.9	-0.5	-0.317
Cc1ccc([N+](=O)[O-])cc1NS(=O)(=O)c1cccc(C(=O)Nc2ccccc2)c1	50.6	.	-0.4	.
C[C@H](CO)N1C[C@H](C)[C@H](CN(C)Cc2ccc(C(=O)O)cc2)Oc2ccc(NC(=O)c3ccncc3)cc2C1=O	0.9	-46.6	-0.3	0.317
Cc1noc(C)c1NC(=O)N(C)C[C@H]1Oc2ccc(NC(=O)Nc3ccc(F)cc3)cc2CC(=O)N([C@H](C)CO)C[C@H]1C	-1.5	9.4	2.9	0.0635
C[C@@H]1CCCCO[C@@H](CN(C)C(=O)Nc2ccc3c(c2)OCO3)[C@@H](C)CN([C@H](C)CO)C(=O)c2cc(NC(=O)Nc3ccccc3)ccc2O1	1.2	-18.9	-0.7	0.118
C[C@@H]1CCCCO[C@@H](CN(C)S(=O)(=O)c2ccc(F)cc2)[C@@H](C)CN([C@H](C)CO)C(=O)c2cc(NC(=O)CCCCCC(=O)Nc3ccccc3N)ccc2O1	-12.5	.	-1.1	-0.0571
CCCn1c(-c2cccs2)n[nH]c1=O	1.2	-26.5	-2.1	-0.134

# Of the compounds above, these have a nitro group on carbon:
mol	MITF inhib	Shh pathway inh	PD-1 reverse act	YB-1 expression
Cc1cc(C)c(NC(=O)CN(c2cccc([N+](=O)[O-])c2)S(C)(=O)=O)c(C)c1	0.4	.	1.8	.
Cc1ccc([N+](=O)[O-])cc1NS(=O)(=O)c1cccc(C(=O)Nc2ccccc2)c1	50.6	.	-0.4	.

# The listing continues:
mol	MITF inhib	Shh pathway inh	PD-1 reverse act	YB-1 expression
C[C@@H]1CN([C@H](C)CO)C(=O)c2cc(NC(=O)Cc3cn(C)c4ccccc34)ccc2O[C@@H]1CN(C)C(=O)Nc1ccc(F)cc1	11.9	-6.2	-0.8	0.307
COc1ccc(S(=O)(=O)Nc2cccc3c2O[C@H](CN(C)Cc2ccccc2)[C@@H](C)CN([C@H](C)CO)C3=O)cc1	-7.9	-0.5	1.9	-0.181
C[C@H]1CN([C@@H](C)CO)C(=O)c2cc(NS(=O)(=O)c3ccccc3)ccc2O[C@H]1CN(C)Cc1ccc(C(F)(F)F)cc1	-3.9	.	-2.2	-0.0606
CC(=O)Nc1ccc2oc3ccccc3c2c1	0.6	.	0.1	0.0981
Cn1c(=O)cc(N2CCOCC2)c2c(=O)n(-c3ccccc3)c(=O)n(-c3ccccc3)c21	-3.0	-11.2	-0.1	-0.0845
O=c1c2ccccc2oc2ccc(O)cc12	-53.4	-22.2	.	0.219
Cc1noc(C)c1NC(=O)Nc1cccc2c1O[C@H](CN(C)C(=O)Nc1ccc(C(F)(F)F)cc1)[C@@H](C)CN([C@H](C)CO)C2=O	-4.6	-145.2	-1.4	0.473
CCN1/C(=C\C(=S)Nc2ccccc2)Sc2ccccc21	-4.2	-114.8	0.2	-0.0835
C[C@@H]1CN([C@H](C)CO)C(=O)Cc2cc(N(C)C)ccc2O[C@@H]1CN(C)Cc1ccccc1	27.1	.	.	-0.591
COc1ccc(OC)c(NC(=O)CSc2nnnn2-c2ccccc2)c1	0.2	.	-2.2	.
CCCCC[C@H](O)/C=C/[C@@H]1[C@H]2C/C(=C/CCCC(=O)O)C[C@H]2C[C@H]1O	-6.9	-33.4	.	-0.00962
C[C@H](CO)N1C[C@H](C)[C@@H](CN(C)CC2CCCCC2)Oc2c(NS(=O)(=O)c3ccc(Cl)cc3)cccc2C1=O	1.2	64.5	-1.2	-0.129
Cc1ccc(OCC(=O)Nc2ccc3oc(-c4ccc(F)cc4Cl)nc3c2)cc1	40.1	.	-2.4	.
COc1ccc(CN(C)C[C@H]2Oc3ccc(NC(=O)Nc4ccc5c(c4)OCO5)cc3C(=O)N([C@H](C)CO)C[C@@H]2C)cc1	-11.9	.	1.1	-0.281
ONC=Nc1ccc2nnc(-c3ccccc3)n2n1	-2.2	.	0.9	-1.4
C[C@@H]1CCCCO[C@H](CN(C)Cc2ccc(Cl)c(Cl)c2)[C@@H](C)CN([C@H](C)CO)C(=O)c2cc(NC(=O)CCCCCC(=O)Nc3ccccc3N)ccc2O1	12.6	.	-1.1	-0.713
Cc1cccc(C(C)C)c1NC(=O)CN(C1CCCCC1)S(C)(=O)=O	-17.1	.	0.6	.
Cc1ccc(S(=O)(=O)Nc2ccc3c(c2)CC(=O)N([C@@H](C)CO)C[C@@H](C)[C@@H](CN(C)S(=O)(=O)c2cn(C)cn2)O3)cc1	-22.3	-22.0	-1.3	-0.0866
C[C@@H]1CN([C@@H](C)CO)C(=O)Cc2cc(NC(=O)Nc3cccc4ccccc34)ccc2O[C@@H]1CN(C)Cc1ccc2c(c1)OCO2	25.7	-0.2	-0.9	0.00882
C[C@H](CO)N1C[C@H](C)[C@H](CN(C)C(=O)NC2CCCCC2)Oc2ccc(N(C)C)cc2C1=O	5.3	17.8	0.3	-0.199
C[C@@H]1CN([C@@H](C)CO)C(=O)c2cc(NC(=O)Nc3cccc4ccccc34)ccc2O[C@H]1CN(C)Cc1ccc(C(F)(F)F)cc1	8.4	-22.8	1.4	0.0299
N#Cc1c(NC(=O)CSc2ncn(-c3ccccc3)n2)sc2c1CCCC2	22.5	.	0.0	.
Cc1ccc(OCC(=O)Nc2cc(C(F)(F)F)ccc2N2CCOCC2)c(C)c1	41.9	.	-8.6	.
COc1ccc(NC(=O)N(C)C[C@H]2Oc3c(NC(=O)c4ccncc4)cccc3C(=O)N([C@H](C)CO)C[C@H]2C)cc1	-1.4	-26.5	0.9	1.18
C[C@H](CO)N1C[C@H](C)[C@H](CN(C)C(=O)Nc2ccc3c(c2)OCO3)Oc2ccc(NS(=O)(=O)c3cn(C)cn3)cc2C1=O	-5.2	.	.	-0.544
Cc1ccc(S(=O)(=O)Nc2ccc3c(c2)CC(=O)N([C@H](C)CO)C[C@@H](C)[C@@H](CN(C)S(C)(=O)=O)O3)cc1	-7.3	.	0.3	-0.363
C[C@H]1CN([C@@H](C)CO)C(=O)Cc2cc(NC(=O)Nc3ccccc3)ccc2O[C@H]1CN(C)Cc1ccncc1	-21.2	35.3	-1.1	-0.143
CCc1cc(Cl)c(OC)c(C(=O)NC[C@@H]2CCCN2CC)c1O	3.0	9.1	.	0.385
COc1ccc(CN(C)C[C@@H]2OCCCC[C@@H](C)Oc3ccc(NC(=O)c4ccccc4)cc3C(=O)N([C@H](C)CO)C[C@@H]2C)cc1	0.7	-0.3	-1.7	-0.163
Cc1noc(C)c1NC(=O)N(C)C[C@@H]1Oc2c(NC(=O)NC(C)C)cccc2C(=O)N([C@H](C)CO)C[C@@H]1C	-6.3	5.0	1.4	0.535
CC1CCc2c(sc3ncnc(NCc4ccco4)c23)C1 (centres undefined)	-22.5	.	-2.0	.
O=C(CC(Sc1ccccc1C(=O)O)c1ccc(F)cc1)c1ccc(F)cc1 (centres undefined)	8.6	-38.6	-3.3	0.139
C[C@H](CO)N1C[C@H](C)[C@H](CN(C)S(=O)(=O)c2ccc(F)cc2)Oc2ccc(NC(=O)C3CC3)cc2CC1=O	6.6	-13.9	-0.4	0.13
COc1ccc(S(=O)(=O)Nc2ccc3c(c2)C(=O)N([C@@H](C)CO)C[C@H](C)[C@H](CN(C)S(=O)(=O)c2cn(C)cn2)O3)cc1	-2.1	-3.4	3.6	-0.372
O=C(c1ccccc1)c1cccc(N=Cc2c(O)[nH]c(=O)[nH]c2=O)c1	-0.3	-40.2	1.4	0.187
Cc1noc(C)c1NC(=O)Nc1cccc2c1O[C@@H](CN(C)Cc1ccc(C(=O)O)cc1)[C@@H](C)CN([C@H](C)CO)C2=O	-2.6	14.2	1.3	-0.563
Cc1nnc(SCC(=O)Nc2ccccc2C(F)(F)F)n1-c1ccc(Cl)cc1	1.6	.	0.7	.
C[C@@H]1CN([C@H](C)CO)C(=O)c2cc(NS(=O)(=O)c3ccc(F)cc3)ccc2O[C@@H]1CN(C)C(=O)NC1CCCCC1	-11.3	9.7	-1.4	0.152
CC(C)C[C@](CC(=O)OCc1ccc(O[C@@H]2O[C@H](CO)[C@@H](O)[C@H](O)[C@H]2O)cc1)(O[C@@H]1O[C@H](CO)[C@@H](O)[C@H](O)[C@H]1O)C(=O)OCc1ccc(O[C@@H]2O[C@H](CO)[C@@H](O)[C@H](O)[C@H]2O)cc1	12.5	13.0	0.1	0.264
C[C@@H]1CN([C@H](C)CO)C(=O)Cc2cc(NC(=O)Cc3ccccc3)ccc2O[C@@H]1CN(C)C(=O)Nc1ccccc1	-19.1	0.9	0.5	-0.313
C[C@@H]1CN([C@@H](C)CO)C(=O)c2cccc(NS(=O)(=O)c3cn(C)cn3)c2O[C@H]1CN(C)Cc1ccccc1	9.0	-94.8	.	-0.0723
COc1ccc(-c2nnc3c4ccccc4c(C)nn23)cc1S(=O)(=O)N1CCN(C)CC1	-22.6	.	1.1	.
COc1ccc(CN(C)C[C@@H]2Oc3c(NS(=O)(=O)c4ccc(F)cc4)cccc3C(=O)N([C@@H](C)CO)C[C@H]2C)cc1	-8.2	-22.0	.	0.613
C[C@@H]1CN([C@H](C)CO)C(=O)Cc2cc(N(C)C)ccc2O[C@@H]1CN(C)Cc1ccc(-c2ccccc2)cc1	-4.2	.	0.3	0.23
Cc1ccc2cc3c(nc2c1)N(Cc1ccco1)CC3	-9.0	-23.1	-0.8	0.0969
COc1ccc(CN(C)C[C@H]2Oc3ccc(NC(=O)Nc4ccccc4)cc3CC(=O)N([C@@H](C)CO)C[C@H]2C)cc1	-7.3	.	-0.5	0.0131
Cc1ccc(S(=O)(=O)Nc2ccc3c(c2)C(=O)N([C@H](C)CO)C[C@H](C)[C@@H](CN(C)S(=O)(=O)c2cn(C)cn2)O3)cc1	5.3	-20.1	2.2	-0.0381
O=C(NCCCn1ccnc1)c1ccccc1I	-18.7	.	0.0	.
COc1cc2nc(CCN3C(=O)c4ccccc4C3=O)oc(=O)c2cc1OC	-10.3	.	3.4	.
